# 2A StopGo = lowers the luciferase signal of an FMDV 2A StopGo reporter; Potency, µM (series often up to 57.9 µM), for inactives: at the top dose signal change, negative = less light; AID 1159524; human cells with a luciferase reporter of 2A StopGo recoding; control for the full effect not named in the record; 1.2% of 410,000 active; active = well fitted falling curve with a large enough effect; inconclusive = small, poorly fitted or top-dose-only effect; inactive = no such curve, though single readings can be large or run the other way; tested in HEK293T cells; further: on the % scale 0 is the no-effect control and ±100 the full control effect; nearly all actives have a fitted effect of over 45% in size; luciferase light after 4 h
# RE007 growth inh = less growth of the S. pombe RE007 Vpr strain. AID 651644. Potency, µM (top dose mostly 92.2 µM), for the others: top-dose activity change, negative = less growth. S. pombe RE007 Vpr strain, BacTiter-Glo ATP luminescence, 24 h; control for the full effect not named in the record. 0.21% of 360,000 active; active = well fitted falling curve with a large enough effect; inconclusive = small, poorly fitted or top-dose-only effect; inactive = no such curve, though single readings can be large or run the other way;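 further: on the % scale 0 is the no-effect control and ±100 the full control effect; nearly all actives have a fitted effect of over 50% in size; the assay follows cell death caused by Vpr and the record does not say whether a fall means rescue or toxicity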
#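 Fission yeast strain RE007, carrying one chromosomally integrated HIV-1 vpr copy, was seeded at OD 0.01 in PMG+AL medium with 23 nL pinned compound. After 24 h at 30 °C and 99% humidity, viability was read by BacTiter-Glo luminescence.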
# MARV entry inh = Marburg virus entry inhibition | 1.8% of 300,000 active | Potency, µM (series often up to 37.8 µM), for the others: top-dose activity change, negative = inhibition, actives largely listed as inhibitors | AID 540276 | Marburg virus pseudotyped entry inhibition, cell reporter; control for the full effect not named in the record; about a third of the inactives were read at about 46 µM; active = well fitted inhibition curve with a large enough effect; inconclusive = small, poorly fitted or top-dose-only effect, or effect the other way; inactive = flat fitted curve, though single readings scatter; tested in HEK293 cells; about a fifth of its hits are not listed in these tables; further: on the % scale 0 is the no-effect control and ±100 the full control effect; luciferase read-out
# Cruzain noTriton = blocks cruzain activity in detergent-free assay | 2.3% of 200,000 active | purified cruzain, Z-FR-AMC fluorescence, no detergent | Potency, µM, for the others: max response, negative = inhibition, usual class: inhibitors;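 further: plate controls were enzyme without inhibitor for no effect and buffer without enzyme for full effect; nearly all actives have a fitted effect of over 40% in size; top concentration of the series not given in the record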
# Target sequence (P25779 123-467 limits assumed): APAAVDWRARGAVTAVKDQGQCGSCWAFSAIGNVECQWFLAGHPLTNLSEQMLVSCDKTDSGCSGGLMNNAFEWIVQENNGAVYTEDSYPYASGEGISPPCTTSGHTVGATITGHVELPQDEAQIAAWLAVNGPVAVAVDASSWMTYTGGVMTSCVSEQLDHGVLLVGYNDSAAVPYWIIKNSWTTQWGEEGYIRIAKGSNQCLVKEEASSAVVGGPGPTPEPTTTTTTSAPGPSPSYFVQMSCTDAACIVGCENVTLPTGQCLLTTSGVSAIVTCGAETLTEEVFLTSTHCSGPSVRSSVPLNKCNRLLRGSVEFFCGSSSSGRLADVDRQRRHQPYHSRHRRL
#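 Detergent-free condition (0.00005% Triton X-100) in acetate buffer pH 5.5 with DTT. 1.5 nM enzyme and compound were pre-mixed 15 min, then 2 uM Z-FR-AMC substrate added; reaction progress from fluorescence change between first and third reads (60 s).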
# Lassa entry inh = blocks Lassa virus binding to or entry into cells; Potency, µM (top dose mostly 37.9 µM), without a hit: top-dose activity change, negative = inhibition, usual class: inhibitors; AID 540256; 1.2% of 300,000 active; Lassa virus pseudotype entry inhibition, cell reporter; control for the full effect not named in the record; active means well fitted inhibition curve with a large enough effect; inconclusive means small, poorly fitted or top-dose-only effect, or effect the other way; inactive means flat fitted curve, though single readings scatter; tested in HEK293 cells; further: on the % scale 0 is the no-effect control and ±100 the full control effect; nearly all actives have a fitted effect of over 50% in size; luciferase read-out
# Cruzain inh Det = cruzain (T. cruzi) inhibition with detergent; P25779; purified cruzain, Z-FR-AMC fluorescence, 0.01% Triton; Potency, µM, inactives show max response, negative = inhibition, usual class: inhibitors; 0.43% of 200,000 active; AID 1478;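 further: plate controls were neutral wells for no effect and buffer without enzyme for full effect; nearly all actives have a fitted effect of over 40% in size; top concentration of the series not given in the record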
#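 Steps: dispense cruzain (1.5 nM final) in acetate buffer pH 5.5 with DTT and 0.01% Triton X-100; pin-transfer compounds; incubate 15 min RT; add Z-FR-AMC (2 uM final); read fluorescence every 30 s, using the 60 s intensity change.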
# NS1 inh = blocks influenza NS1 protein function; S. cerevisiae slowed by influenza A NS1, growth recovery by OD600; Potency, µM (top dose mostly 46.1 µM), without a hit: at the top dose activity, positive = more growth; 0.4% of 270,000 active; AID 2326; active means well fitted rising curve with a large enough effect; inconclusive means small, poorly fitted or top-dose-only effect; inactive means no such curve, though single readings can be large or run the other way; further: nearly all actives have a fitted effect of over 50% in size
#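 S. cerevisiae expressing influenza A NS1, grown in glucose, washed, then diluted 1:100 into pH 6.0 -URA galactose medium with 23 nl compound. Growth recovery read as OD600; NS1-free strain serves as control.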
# SARS PLP yeast = inhibitors of SARS-CoV papain-like protease in yeast. Potency, µM (top dose mostly 32.9 µM), without a hit: at the highest dose activity, positive = growth rescue. AID 485353. S. cerevisiae expressing SARS-CoV PLpro, growth rescue; control for the full effect not named in the record. 0.19% of 330,000 active; active means well fitted rising curve with a large enough effect; inconclusive means small, poorly fitted or top-dose-only effect; inactive means no such curve, though single readings can be large or run the other way; further: 0% is about no effect; nearly all actives have a fitted effect of over 55% in size; growth read by luminescence after 48 h
# * marks the source's active call; other numbers are inactive results; ? = inconclusive; · = no result given; & = joins results of further samples; [ ] = another dose, or the depositor's remark. Unless noted, the call rests on the fitted dose curve; in most records, active means well fitted curve in the direction sought with a large enough effect; inconclusive means small, poorly fitted or top-dose-only effect, or another doubt; inactive means no such curve, though single readings can be large; an effect the other way counts as inactive or inconclusive. Potency means the concentration at half of the fitted maximal effect.
SMILES,2A StopGo,RE007 growth inh,MARV entry inh,Cruzain noTriton,Lassa entry inh,Cruzain inh Det,NS1 inh,SARS PLP yeast
Cc1ccccc1CNC(=O)C1CCN(c2nnc(-n3c(C)ccc3C)s2)CC1,-24%,·,-4%[46.1 µM],5%,-1%[46.1 µM],-4.6%,·,·
Cc1ccc(Nc2nnc(SCC(=O)c3ccc(Br)s3)s2)c(C)c1,-19%,31%,?,7%,-4%,-9.4%,?,-11%
Cc1nc2c(-c3ccc(Cl)cc3)cnn2c2c1CCC2,23%,3%,23%[46.1 µM],·,?,·,·,-1%
Cc1ccc(S(=O)(=O)N(C)C)cc1NC(=O)c1n[nH]c(=O)c2ccccc12,?,-7%,·,·,·,·,-4%,0%
O=C(COC(=O)CCc1c[nH]c2ccccc12)NC1CCS(=O)(=O)C1 (configuration not stated),-23%,16%,?,4%,5%,0.9%,-2%,15%
CCN(CC)C(=O)c1cncc(C(=O)N(CC)CC)c1-c1ccccc1,-3%,-2%,-2%,-7%,9%,2.4%,2%,6%
COc1ccc(CN(C(=O)c2snc(C(N)=O)c2N)C(C(=O)NC2CCCC2)c2ccc(OC)c(OC)c2)cc1 (configuration not stated),18%,5%,-22%[46.1 µM],·,-14%[46.1 µM],·,3%,-1%
COc1ccc(S(=O)(=O)NCCN2CCNC2=O)cc1OC,7%,2%,-9%,·,7%,·,5%,1%
Cc1ccc(Cl)cc1NC(=O)Cn1cccc1,22%,7%,18%,-1%,2%,3.7%,-3%,6%
CC(C)(C)C(=O)Nc1cc(C(F)(F)F)ccc1N1CCOCC1,-6%,4%,-2%,-1%,-5%,-4.3%,0%[9.22 µM],1%
CCOC(=O)c1c(-c2ccccc2Cl)csc1NC(=O)c1cc(S(=O)(=O)N2CCOCC2)ccc1C,-23%,1%,?,25µM*,?,-2.2%,24%,8%
Cc1occc1-c1nnc(SCC(=O)Nc2c(F)cccc2F)n1C,3%,3%,11%,·,29%,·,·,-4%
CSc1ccc(/C=C(\C#N)C(=O)NC2CCCCC2C)cc1 (configuration not stated),0%,?,?,3%,-18%,-4.9%,-33%,-12%
CCOC(=O)N1CCN(CC(=O)c2c(C)[nH]c3ccccc23)CC1,-17%,-19%,?,-15%,2%,2.1%,-37%,1%
COCCNC(=O)CSc1nc2cc3c(cc2c(=O)n1CCCC(=O)NCc1ccc(OC)cc1)OCO3,-13%&2%,-18%,-1%&-1%,-4%,?,2.0%,·,-2%
CC(=O)Nc1c(C)nn(-c2ccccc2)c1N1CCC(C(=O)Nc2ccccc2F)CC1,0%,·,·,4%,-23%[46.1 µM],1.8%,·,·
COc1ccc(C(=O)N2N=C(c3ccc(NS(C)(=O)=O)cc3)CC2c2cccs2)cc1 (configuration not stated),-12%,1%,?,·,?,·,-6%,2%
Nc1c(NCc2ccccc2)c(=O)[nH]c(=O)n1Cc1ccccc1,-5%,-6%,10%,5%,8%,1.4%,13%,-1%
c1ccc(Oc2cccc3cccnc23)nc1,6%,29%,0%,·,-6%,·,7%,2%
COc1ccc(CNC(=O)C(=O)NCC2CCCO2)cc1 (configuration not stated),5%,8%,14%,-2%,-6%,3.6%,2%,2%
COc1ccc(C)cc1N(CC(=O)Nc1cccc(N(C)S(C)(=O)=O)c1)S(C)(=O)=O,·,-10%,11%,11%,-6%,-1.4%,-5%,0%
O=C(Oc1c(Br)cc(Br)c2cccnc12)N1CCCCC1,-30%,-6%,?,·,7%,·,·,-2%
CCN(CC(=O)Nc1c(F)cccc1F)C(=O)c1ccc(COc2ccccc2)o1,-7%,28%,5%,·,-3%,·,·,5%
CCOc1cc(/C=N/NS(=O)(=O)c2ccccc2)ccc1OS(=O)(=O)c1ccc(C)cc1,20%,1%,?,?,0%,-4.1%,21%,6%
CC(=O)NN1C(=O)c2ccccc2NC1c1cccc([N+](=O)[O-])c1 (configuration not stated),2%,-2%,4%,·,-3%,·,2%,-1%
COc1cc(OC)c(NS(=O)(=O)c2ccc3oc(=O)c4ncn(C)c4c3c2)cc1Cl,-11%,·,·,-2%,?,-1.1%,·,·
Cc1nc2scc(-c3ccc(Cl)cc3)c2c(=O)n1N,-18%,9%,-19%[46.1 µM],·,8%,·,-2%,-3%
O=C(Nc1ccccc1)C1CCCN1/C=C/C(=O)C(F)(F)F (configuration not stated),21%,12%,0%,·,4%,·,·,0%
O=C(CCCN1C(=O)/C(=C/c2cccc(Br)c2)SC1=S)Nc1cccnc1,-2%,-16%,?,·,?,·,·,-6%
O=C(c1ccccc1F)N1CCOCC1,-1%,-2%,·,·,·,·,-3%,7%
CCC(C)(O)C(=O)OC1C(=O)OC2CC3C(C)=CC(=O)C(O)C3(C)C3C4(O)OCC23C1C(C)C4O (configuration not stated),-47%,1%,·,·,·,·,·,·
c1cncc(CSc2ccc(-c3cccs3)nn2)c1,3%,9%,-16%[46.1 µM],·,5%,·,·,-13%
O=c1c2ccccc2nnn1CSc1nnc(-c2cccnc2)n1-c1ccccc1F,0%,-20%,8%&8%,-13%,1%,-1.0%,10%,3%
Cc1ccc(S(=O)(=O)N2CCCCC2)cc1NC(=O)c1ccc2ccccc2n1,-11%,0%,?,?,?,-2.3%,34%,-17%
CC(C)(C)c1ccc(C2/C(=C(\O)c3ccc4c(c3)OCCO4)C(=O)C(=O)N2CCCN2CCOCC2)cc1 (configuration not stated),-25%,-3%,·,·,·,·,17%,-5%
O=c1cc(COn2nnc3ccc(C(F)(F)F)cc32)nc2sccn12,-7%,-5%,14%,28%,15%,-7.9%,5%,16%
COc1ccc(CNC(=O)CN2CCN(S(=O)(=O)c3cccs3)CC2)cc1OC,-7%,0%,3%[46.1 µM],·,-3%[46.1 µM],·,·,1%
Cc1ccccc1C(=O)NC(=S)Nc1ncccn1,36%[activator],18%,?,·,16%[46.1 µM],·,6%,-6%
O=C1C2CCCN2C(c2ccc(F)cc2)N1c1cccc(Cl)c1 (configuration not stated),-6%,-7%,·,5%,·,2.4%,7%,3%
CCN1CCN(C2=C(Cl)C(=O)N(Cc3ccccc3)C2=O)CC1,?,2%,-13%,9%,?,-2.1%,11%,0%
Cc1ccc(S(=O)(=O)N2CCOCC2)cc1NC(=O)COc1cccc(Oc2ccccc2)c1,?,-5%,?,·,?,·,·,-2%
COc1ccc(C(=O)N2CCN(C3CCC(c4ccccc4)CC3)CC2)cc1OC (configuration not stated),?,-8%,?,-1%,?,-0.3%,-9%,1%
CN1CCC(NC(=O)Cc2c(F)cccc2Cl)CC1,-17%,-3%,32%,-16%,-3%,0.2%,6%,-9%
Cc1ccc(SCc2c(C(=O)N/N=C/c3ccoc3)nnn2-c2nonc2N)cc1,?,22%,·,·,·,·,17%,-6%
Cc1ccc(C(N)=S)c(C)c1,-17%,-25%,21%,-8%,?,0.5%,9%,?
S=C(NC1CCCCC1)N1CCC(c2cnc[nH]2)CC1,-11%&-14%,0%[18.4 µM],18%&17%&18%&18%&18%&18%&18%,-2%&3%,0%,4.0%&0.0%,-4%,·
Cc1cccc(N2CCN(C(=O)Cc3c(C(=O)O)[nH]c4ccc(Cl)cc34)CC2)c1C,0%,16%,-18%&-18%[46.1 µM],?,-15%,-20%,?,1%
Clc1ccc(-c2csc3ncnc(N4CCc5ccccc5C4)c23)cc1,?,-1%,10%,?,0%,-2.7%,3%,15%
CC(C)n1nccc1N(Cc1ccc(Br)cc1)S(=O)(=O)c1ccccc1,-8%,94%,?,·,?,·,-70%,-12%
COc1cc(N=c2ssnc2Cl)c(OC)cc1Cl,?,?,16µM*,25µM*,?,-11%,-166%,-2%&-33%
O=C(NCCO)c1ccc2nc(Cc3cccc(Cl)c3)oc2c1,24%,1%,·,·,·,·,7%,2%
Cc1nc(CCNC(=O)COc2ccccc2)cs1,-7%,-4%,·,-27%,·,1.0%,-9%,4%
CCCCNc1nc(CC(C)=O)ns1,-1%,-8%,0%,3%,-2%,3.1%,-4%,-4%
COc1ccc(S(=O)(=O)N2CCC(C(=O)N[C@H](C(=O)N3CCCC3)C(C)C)CC2)cc1,-5%,-5%,9%[46.1 µM],·,?,·,-5%,-3%
COc1ccc(NC(=O)Cc2csc(C)n2)cc1,5%,·,5%[46.1 µM],-18%,?,0.0%,·,·
COc1ccc(NC(=S)N(Cc2cccnc2)Cc2ccco2)cc1,-3%,-1%,-25%[46.1 µM],·,6%,·,-6%,-4%
O=C(NCCC(=O)N1CCN(c2ccccc2O)CC1)c1ccc(Br)cc1,-13%,4%,4%,·,-15%[46.1 µM],·,·,-1%
CCN1CCN(C(=O)c2cc3nc(-c4ccccc4)cc(C(F)(F)F)n3n2)CC1,3%,-17%,-18%,3%,0%,0.9%,-6%,5%
Cn1c(NCCCCO)nc2c1c(=O)n(Cc1ccc(Cl)cc1)c(=O)n2C,-26%,·,?,?,-17%[46.1 µM],-3.4%,·,·
O=C(N/N=C/c1ccc2c(c1)OCO2)c1cc(-c2ccccc2)nc2ccccc12,4%,18%,?,?,?,-6.1%,11%,-6%
# Next records.
SMILES,2A StopGo,RE007 growth inh,MARV entry inh,Cruzain noTriton,Lassa entry inh,Cruzain inh Det,NS1 inh,SARS PLP yeast
CN(CC(=O)Nc1ccc(Cl)cc1)C(=O)CCc1c[nH]c2ccccc12,-20%,-24%,-2%[46.1 µM],·,?,·,0%,-2%
COc1ccc(C2CC(=O)c3cc(-c4nc(-c5cccc(Cl)c5)cs4)c(=O)[nH]c3C2)cc1 (configuration not stated),-10%,·,?,?,27%[46.1 µM],-2.3%,·,·
CCOC(=O)c1cn(Cc2c(C)c(C)c(C)c(C)c2C)nn1,?,-6%,?,-23%,?,-0.7%,10%,-3%
COc1cccc(CNC(=O)CN2C(=O)N(c3cc(C)ccc3C)S(=O)(=O)c3ccccc32)c1OC,-7%,·,·,?,?,-1.9%,·,·

# Compounds were not picked by outcome; any-hit rate near 4.7%.
